TRPML1 agonist = human mucolipin-1 channel agonism. TRPML1-expressing cells, Ca2+ dye fluorescence, FDSS; host cell line not named in the record; reference of the full effect not given here. activation, % (test concentration not listed). 410,000 tested, 0.12% active. AID 624414; in the data active = activation above about 50%; inconclusive = about 30% to 50%; inactive = below about 30%; further: 0% is about no effect; the text of the record puts the active cut at 80%
Target sequence (Q9GZU1 whole entry, looked up): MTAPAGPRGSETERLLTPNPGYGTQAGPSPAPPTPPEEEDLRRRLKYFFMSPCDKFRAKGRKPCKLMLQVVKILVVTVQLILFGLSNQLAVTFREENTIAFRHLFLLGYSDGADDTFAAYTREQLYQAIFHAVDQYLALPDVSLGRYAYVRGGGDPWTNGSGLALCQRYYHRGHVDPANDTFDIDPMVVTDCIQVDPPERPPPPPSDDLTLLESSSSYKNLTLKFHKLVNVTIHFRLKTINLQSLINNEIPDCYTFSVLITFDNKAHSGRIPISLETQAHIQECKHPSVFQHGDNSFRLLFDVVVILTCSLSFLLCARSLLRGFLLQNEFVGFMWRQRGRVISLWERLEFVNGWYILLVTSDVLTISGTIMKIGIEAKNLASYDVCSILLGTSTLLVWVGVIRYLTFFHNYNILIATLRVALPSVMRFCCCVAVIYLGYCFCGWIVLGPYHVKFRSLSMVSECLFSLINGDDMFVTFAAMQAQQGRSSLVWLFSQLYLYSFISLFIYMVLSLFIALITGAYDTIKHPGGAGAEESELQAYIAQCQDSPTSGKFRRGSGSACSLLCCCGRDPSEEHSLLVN
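Calcium fluorescence on an FDSS kinetic reader gave the read-out. Tet-induced TRPML1-DL cells were plated overnight, dye-loaded (Ca8 with quencher, 45-90 min, room temperature, dark), then read 110 s after compound addition, and again 110 s after 4uM final 54-4 (EC80).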
TRPV1 PAM = human TRPV1 potentiation; Q8NER1; TRPV1-expressing cells, Fluo-8 calcium influx, capsaicin EC20 potentiation; host cell line not named in the record; control for the full effect not named in the record; potentiation, % at 8.33 µM; 320,000 tested, 0.02% active; active means potentiation above 80%; inconclusive means 30% to 80%; inactive means below 30%; further: 0% is about no effect
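Fluo-8 calcium influx in TRPV1-expressing cells, kinetic read (ex 480/em 520 nm). Compound added and read 3 min for agonist activity, followed by capsaicin at EC20 final and 2 min further read for enhancement.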
TRPML1 inh = inhibitors of human TRPML1 channel; Q9GZU1; TRPML1-inducible cells, Ca2+ dye fluorescence, FDSS; stronger effect = lower value; inhibition of EC80 agonist-evoked calcium signal; activity change, negative = inhibition, % (no concentration beside the values); 390,000 tested, 0.02% active; AID 624415; in the data active means activity change below about -50%; inconclusive means about -30% to -50%; inactive means above about -30%;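 further: stimulus is agonist 54-4 at its EC80 concentration; on the % scale 0 is the no-effect control and ±100 the full control effect; compound concentration not given in the record; the text of the record puts the active cut at -80%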
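TRPML1-DL cells, Tet-induced overnight (~16 h, 37 °C) at 1,500 cells/well, were loaded with Ca8 no-wash dye plus quencher for 45-90 min at room temperature. Compounds were pinned during FDSS kinetic reading; agonist 54-4 at EC80 (4 uM final) then added.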
Six1-Eya2 blk = Six1/Eya2 interaction inhibition | Q15475+O00167 | AlphaScreen GST-Six1/His-Eya2 binding, biochemical; stronger effect = lower value; control for the full effect not named in the record | 360,000 tested, 0.56% active | AID 651725 | activity change, % (no concentration beside the values); in the data active = activity change below about -65%; inconclusive = about -30% to -65%; inactive = above about -30%; further: on the % scale 0 is the no-effect control and ±100 the full control effect; compound concentration not given in the record
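AlphaScreen with GST-Six1 and His-Eya2 (5X mix: 250 nM and 500 nM), glutathione donor and nickel acceptor beads; buffer 50 mM Tris pH 8.0, 300 mM NaCl, 1 mM TCEP; 1 h at 37 C in the dark.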
D2 PAM = positive allosteric modulators of human D2 dopamine receptor; DiscoveRx D2 beta-arrestin cells, luminescence, 90 min; 100% = 57 uM dopamine signal; potentiation, % (test concentration not listed); 360,000 tested, 0.23% active; AID 624464; active = potentiation of 50% or more; inconclusive = 30% to 50%; inactive = 30% or less;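 further: compound concentration not given in the record; tested on top of an EC20 dose of dopamine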
Target sequence (P14416 whole entry, looked up): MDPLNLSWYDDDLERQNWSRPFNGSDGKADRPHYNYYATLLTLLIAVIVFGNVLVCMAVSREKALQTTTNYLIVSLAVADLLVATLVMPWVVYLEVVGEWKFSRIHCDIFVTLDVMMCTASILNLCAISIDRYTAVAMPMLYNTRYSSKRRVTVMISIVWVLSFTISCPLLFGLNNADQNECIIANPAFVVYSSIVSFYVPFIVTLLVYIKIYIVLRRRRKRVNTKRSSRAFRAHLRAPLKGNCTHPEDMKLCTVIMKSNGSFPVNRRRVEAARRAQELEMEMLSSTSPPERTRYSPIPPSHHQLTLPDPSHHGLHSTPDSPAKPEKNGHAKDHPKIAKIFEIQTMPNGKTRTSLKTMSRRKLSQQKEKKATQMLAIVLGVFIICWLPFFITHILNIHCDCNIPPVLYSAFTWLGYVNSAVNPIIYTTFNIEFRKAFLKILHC
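PathHunter D2 cells, attached overnight at 37 deg C, received compound in DMSO plus dopamine at EC20 (50 nM final) for 90 min at 37 deg C. Beta-arrestin recruitment was read as luminescence after 1 h with detection reagent at ambient temperature.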
CtBP-E1A blk = CtBP/E1A binding inhibition. AlphaScreen GST-E1A/His-CtBP binding, 1536-well; stronger effect = lower value; control for the full effect not named in the record. activity change, % (no concentration beside the values). 340,000 tested, 0.49% active; in the data active means activity change below about -65%; inconclusive means about -30% to -65%; inactive means above about -30%; further: on the % scale 0 is the no-effect control and ±100 the full control effect; compound concentration not given in the record
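AlphaScreen with 125 nM GST-E1A and 125 nM His-CtBP (5X stocks) in Tris pH 8.0, 300 mM NaCl, BSA, Tween 20, TCEP. Compounds preincubated 2 h at 37 deg C, then glutathione donor/nickel acceptor beads added for 1 h at 37 deg C in dark.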
An asterisk follows results filed as active; ? = inconclusive; / = no result given; & = joins results of further samples.

SMILES	TRPML1 agonist	TRPV1 PAM	TRPML1 inh	Six1-Eya2 blk	D2 PAM	CtBP-E1A blk
CCc1ccc2c(c1)NC(=O)C2(C)Cc1ccc(C(F)(F)F)o1 (stereo not given)	2.8	/	/	3	-4	1
CCN(CC)C(=O)C1(P(=O)(c2ccccc2)c2ccccc2)CCC1	9.4	-7	21	-16	-1	8
O=S(=O)(c1ccc(F)cc1)N1CCN(CCOc2ccccc2)CC1	0.7	/	-12	0	-13	3
Cc1nn(CC(=O)Nc2ccc3c(c2)nc2n3CCOC2)c(=O)c2ccccc12	-0.2	2	-5	0	-8	1
O=C(O)C1CCN(c2ccc(S(=O)(=O)N3CCC(C(=O)O)CC3)cc2[N+](=O)[O-])CC1	-0.1	15	1	3	6	-4
Cc1cc(C)n2ncc(/C(N)=N/OC(=O)c3ccccc3F)c2n1	-0.3	-1	1	0	6	4
CCOc1ccc(OCCOCCOc2c(Cl)cccc2Cl)cc1	0.4	/	1	47	5	49
COc1cc(NC(=S)NN2CCN(C)CC2)cc(OC)c1OC	-0.7	6	9	5	5	-3
O=C(O)CCc1ccc(-c2cccs2)n1CCc1ccccc1	0.4	-5	12	2	-15	/
CCn1c(SCC(=O)O)nnc1-c1ccc(S(=O)(=O)N2CCCC2)cc1	0.6	2	-6	9	-3	-6
O=c1oc2ccccc2cc1-c1nc2c(s1)CCc1ccccc1-2	6.8&7.9	-1	-20	54	?	43
CC(C)(C)OC(=O)N1CCN(C(=O)c2ncn3c2c(=O)[nH]c2ccccc23)CC1	0.2	/	1	2	2	-1
O=C(c1ccco1)N(Cc1nc2ccccc2c(=O)[nH]1)C1CCCC1	1.2	9	2	4	-1	-5
O=[N+]([O-])c1ccc(N/N=C/c2c[nH]c3ccccc23)c(S(=O)(=O)Nc2ccc(Cl)cc2)c1	15	4	-6	1	-8	-2
COc1ccccc1-c1cnn2c(NCCc3ccccc3)cc(C)nc12	1.8	-8	-15	19	4	57
COCCNCC(=O)C12CC3CC(CC(C3)C1)C2	0.3	8	-10	2	-8	10
Cn1c(Cn2c(=O)sc3ccccc32)nnc1SCc1cccnc1	3.3	10	?	-1	-1	9
COC(=O)c1c(C)[nH]c(C(=O)OC(C)C(=O)NC2CCCCC2C)c1C (stereo not given)	0.1	/	-2	10	-2	-16
C[C@@H]1CN([C@H](C)CO)C(=O)CCCn2cc(nn2)CO[C@H]1CN(C)C(=O)Nc1cccc(Oc2ccccn2)c1	0.0	/	8	5	0	-22
CCc1nc(OCc2ccco2)c2sc3nc4c(cc3c2n1)COC(C)(C)C4	1.4	-16	-3	-20	-15	-8

Single records (already shown). Screens in order: TRPML1 agonist | TRPV1 PAM | TRPML1 inh | Six1-Eya2 blk | D2 PAM | CtBP-E1A blk
CCc1ccc2c(c1)NC(=O)C2(C)Cc1ccc(C(F)(F)F)o1 (stereo not given) is entered as 2.8 | / | / | 3 | -4 | 1
Cc1cc(C)n2ncc(/C(N)=N/OC(=O)c3ccccc3F)c2n1 is entered as -0.3 | -1 | 1 | 0 | 6 | 4
Cn1c(Cn2c(=O)sc3ccccc32)nnc1SCc1cccnc1 is entered as 3.3 | 10 | ? | -1 | -1 | 9

Following part.
SMILES	TRPML1 agonist	TRPV1 PAM	TRPML1 inh	Six1-Eya2 blk	D2 PAM	CtBP-E1A blk
Cc1ccccc1/C=N/NC(=O)c1cccnc1	0.3	-5	13	7	-3	-11
Cc1ccc(C)c(NC(=O)c2cnn3ccccc23)c1	-0.6	-1	-1	-4	-7	3
N=c1c(C(=O)NC2CCCCC2)cc2c(=O)n3ccccc3nc2n1CC1CCCO1 (stereo not given)	-0.6	5	10	1	-7	-4
CCOc1ccc(NC(=O)[C@@H](NC(=O)c2ccccc2)[C@@H](C)CC)cc1	4.0	9	8	-1	-6	-1
O=C(C1CCCN(S(=O)(=O)c2cccc3cccnc23)C1)N1CCN(c2ccccc2F)CC1 (stereo not given)	4.9	/	4	0	2	-1
CCOc1cc(/C=C2/NC(=O)NC2=O)cc(Br)c1OCc1ccc(C(=O)O)cc1	1.1	7	7	?	-2	-17
O=[N+]([O-])c1cccc(/C=C/c2ccc3cccc(O)c3n2)c1	1.2	3	5	2	1	5
OCCNc1nc(-c2cccnc2)nc2ccccc12	0.4	11	-1	-21	-2	5
O=C(O)CC(c1ccccc1)N1C(=O)c2cccc([N+](=O)[O-])c2C1=O (stereo not given)	/	-17	/	3	-11	/
CCCCOc1ccccc1N1CCN(CCCN2C(=O)C3CCCN3C2=O)CC1 (stereo not given)	1.1	-11	-14	0	4	0
Cc1ccc(C(=O)c2c3ccc([N+](=O)[O-])cc3[n+]([O-])n2CCCC(N)=O)cc1	-0.3	-5	11	-1	9	-7
COC(=O)c1ccc(OCc2nn[nH]n2)cc1	-0.4	-5	-24	-1	-15	/
CCc1ccccc1NC1=NCC(=O)N1Cc1ccc(OC)cc1	4.0	5	-4	-1	-8	0
Cc1c([N+](=O)[O-])c(C(=O)Sc2ccc(Br)cc2)nn1C	0.5	-3	3	-3	-3	4
COc1ccccc1C(CNC(=O)c1ccc(NS(=O)(=O)c2ccc3c(c2)OCCO3)cc1)N(C)C (stereo not given)	0.2	12	-9	2	-7	13
COc1cccc(CNCc2ccco2)c1O	0.2	-2	-20	3	0	5
N#Cc1cc2cc3ccccc3nc2n2c(=O)c3ccccc3nc12	-0.2	4	-23	-3	10	-17
O=C(CCCN1C(=O)c2ccccc2C1=O)NC1CCCCCC1	-0.8	4	17	-2	-5	-4
Cc1ccc2nc(NCc3ccccc3)c(C=NCc3cccnc3)c(=O)n2c1	-0.5	-15	-9	-5	-10	1
CCOC(=O)c1ccc(COC(=O)c2ccc(-c3nnc(-c4ccccc4)o3)cc2)o1	1.1	/	5	-2	-12	-1

An excerpt from above in order of molecular weight, smallest number first.
SMILES	TRPML1 agonist	TRPV1 PAM	TRPML1 inh	Six1-Eya2 blk	D2 PAM	CtBP-E1A blk
OCCNc1nc(-c2cccnc2)nc2ccccc12	0.4	11	-1	-21	-2	5
N#Cc1cc2cc3ccccc3nc2n2c(=O)c3ccccc3nc12	-0.2	4	-23	-3	10	-17
COC(=O)c1c(C)[nH]c(C(=O)OC(C)C(=O)NC2CCCCC2C)c1C (stereo not given)	0.1	/	-2	10	-2	-16
Cc1nn(CC(=O)Nc2ccc3c(c2)nc2n3CCOC2)c(=O)c2ccccc12	-0.2	2	-5	0	-8	1
CCOc1cc(/C=C2/NC(=O)NC2=O)cc(Br)c1OCc1ccc(C(=O)O)cc1	1.1	7	7	?	-2	-17

Other entries.
SMILES	TRPML1 agonist	TRPV1 PAM	TRPML1 inh	Six1-Eya2 blk	D2 PAM	CtBP-E1A blk
Nc1c(Cl)ncnc1N/N=C/c1ccnc2ccccc12	0.7	-1	6	-22	-15	-16
Cc1ccc(S(=O)(=O)NCCCNc2ccc([N+](=O)[O-])cc2)cc1	0.0	-18	-11	-10	-8	-6
CCC(C)(C)NC(=O)C(Sc1ccccc1)c1ccccc1 (stereo not given)	0.3	-15	7	5	-9	6
CCC(C)NC(=S)Nc1ccccc1OC (stereo not given)	-0.4	-1	-5	15	-3	-6
CC1(C(=O)Nc2ccc3c(c2)OCCO3)CCN1C(=O)C1(c2ccc(Cl)cc2)CC1 (stereo not given)	-0.1	/	/	-3	-9	-3
O=C(O)C(Cc1c[nH]c2ccccc12)NS(=O)(=O)c1ccccc1 (stereo not given)	0.2	4	0	-3	-22	-3
O=S1(=O)CCO[C@H]2Cc3ccccc3[C@H]2N1Cc1ccccc1Br	0.9&-0.3	5	4	-2	-3	0
CNC(=O)Nc1ccc2snnc2c1	-0.3	8	27	4	-9	5
CC(/C=N/N1C(=O)CSC1=S)=C\c1ccccc1	0.1	-3	31	-8	1	-18
Cc1cc(Cl)ccc1OC(C)C(=O)NC(C)C1CCCO1 (stereo not given)	-0.6	-1	-11	3	5	8
CC(=O)c1cccc(OC(=O)C2=CC=CN3CCS(=O)(=O)N=C23)c1	2.1	13	-7	3	-1	-9
COc1ccc(CN2CCc3ccc(NC(=O)c4ccncc4)cc3C2)c(F)c1	1.3	-7	22	-7	-10	4
CC(=O)Nc1cccc(OCC(=O)/C=C2\N(C)c3ccccc3C2(C)C)c1	-1.0	-15	32	-4	-11	-8
C/C=C\C=C\C(=O)N1CC2(CC(c3cccc(NC(=O)CC)c3)=NO2)C[C@H]1C(N)=O (stereo not given in full)	-0.1	-3	4	-11	-6	2
O=C(Nc1cccc([N+](=O)[O-])c1)C1CC(=O)N(Cc2ccccc2)C1 (stereo not given)	-1.1	-6	-13	-2	-17	4
CCC(=O)c1ccc(N2CCN(C(=O)c3cccc(F)c3)CC2)c(F)c1	2.9	2	6	-11	-2	/
O=C(Cn1cc(F)c(=O)[nH]c1=O)NCCO	3.7	-2	8	0	-5	-8
Cc1ccsc1CNC(=O)c1c(-c2ccccc2)noc1C	0.0	-2	-9	7	-5	5
CCOc1cccc(NC(=O)C2CC(=O)N(c3ccc(F)cc3)C2)c1 (stereo not given)	2.3	-10	4	5	-4	4
Cc1cc[n+](CC(=O)Nc2cc(C(F)(F)F)ccc2Cl)cc1	0.2	14	1	4	-14	2
CCCC1(c2ccccc2)NC(=O)N(CC(=O)NCc2ccc(C)cc2)C1=O (stereo not given)	-1.3	10	-13	5	-4	-2
NNC(=O)C(=O)NCCCN1CCOCC1	0.7	2	-11	12	-2	/
Cc1c(C(=O)Nc2c(C)n(C)n(-c3ccccc3)c2=O)oc2c(Cl)cccc12	-1.0	10	17	-9	-18	16
S=c1[nH]nc(C2CCCCC2)o1	-0.6	-1	-7	-3	-1	8
CC(=O)c1ccc(NC2=C(N3CCOCC3)C(=O)c3ccccc3C2=O)cc1	0.4	12	-6	?	4	0
COc1ccccc1N1CCN(C(=O)c2cc(=O)c3cc(C)cc(C)c3o2)CC1	0.2	-3	18	4	-1	4
COc1ccc(-n2ccc(=O)c3c2CCCC3=O)cc1	-0.4	10	-9	7	8	-1
CCc1nc2ccc(C(=O)NCCOc3ccc(OC)cc3)cn2c1N(C)Cc1cccs1	-1.3	/	/	-7	3	-12
CCn1c(SCC(=O)N/N=C/c2ccc(C)o2)nnc1-c1ccccc1	-0.6	2	-10	5	-9	-7
CCCN1CNC(=S)N(Cc2ccccc2)C1	-0.4	3	29	6	-11	14
Cc1nn(-c2ccc(F)cc2)c(Cl)c1C(=O)NCC1CCCO1 (stereo not given)	0.8	-20	1	4	-3	0
O=C(NNC(=O)c1ccccc1F)c1ccc(S(=O)(=O)N2CCCC2)cc1	-0.3	/	-24	2	-14	4
CN(CCc1cnn(C)c1)Cc1nc(CC2CC2)no1	-0.4	-3	23	3	-2	2
O=C(Nc1ccc(N2CCN(C(=O)c3ccccc3F)CC2)cc1)c1ncn[nH]1	-0.6	0	-1	-72*	-5	?
CCOC(=O)C1CCC(CN(Cc2ccccc2)S(=O)(=O)c2ccc([N+](=O)[O-])cc2)CC1 (stereo not given)	0.1	-3	-7	-22	12	-30
CC(=O)N1N=C(c2cccc(NS(=O)(=O)c3ccc(C)cc3)c2)CC1c1ccco1 (stereo not given)	2.0	-1	18	-7	-10	-10
CC1(c2nnc(-c3ccccc3)o2)CC(c2ccc(F)cc2)=NO1 (stereo not given)	-0.6	-19	-7	2	-8	/
Cc1ccc(C)c(NC(=S)N=Nc2c(O)n(C)c3ccc(S(=O)(=O)N4CCOCC4)cc23)c1	3.4	6	1	-4	-2	1

Compounds as they come. About 0.95% of those tested had a hit in this group.
